# Source: PubChem (National Center for Advancing Translational Sciences (NCATS))
# gsp agonist – agonists of gsp mutant (McCune-Albright syndrome); gsp mutant cells, cAMP HTRF, 30 min; control for the full effect not named in the record; Potency, µM (doses to about 76.9 µM), for inactives: at the top dose activation (cAMP increase), actives largely listed as activators; actives 0.13% (n = 340,000); active = well fitted activation curve with a large enough effect; inconclusive = small, poorly fitted or top-dose-only effect, or another doubt; inactive = no such curve, though single readings can be large or run the other way; cell line not stated here;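 also: phosphodiesterase inhibitor Ro 20-1724 added with compounds to block cAMP breakdown; potency is read from the fitted curve at half-maximal effect; nearly all actives have a fitted effect of over 60% in size; about a fifth of the inactives were tested at one dose only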
#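 Cells in DMEM/10% FBS with G418 were pretreated with compounds in DMSO plus […] (300 uM stock) for 30 min at 37C. cAMP was measured by HTRF (cAMP-d2 plus anti-cAMP antibody-K) after 30 min at room temperature.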
# CtBP-E1A inh – inhibitors of CtBP/E1A interaction; actives 0.49% (n = 340,000); AlphaScreen GST-E1A/His-CtBP binding, 1536-well; active compounds read low; control for the full effect not named in the record; activity change, % (test concentration not listed); AID 651724; in the data active means activity change below about -65%; inconclusive means about -30% to -65%; inactive means above about -30%; also: % is scaled to controls: 0 for no effect and ±100 for the full control effect
#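 Protein mix (5X: 125 nM each GST-E1A, His-CtBP) was incubated with pinned compound 2 h at 37 deg C in dark, in 50 mM Tris pH 8.0 buffer with 300 mM NaCl. Glutathione donor and nickel acceptor beads followed; AlphaScreen signal read after 1 h.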
# Menin MLL FP FL – displaces fluorescein MLL peptide from human menin; FP activity change, % at 61.4 µM; 290,000 tested, under 10 active; AID 1766; Fluorescence polarization, fluorescein-MLL peptide displacement from menin; inconclusive = falling polarisation curve, or a change in total fluorescence; inactive = total fluorescence flat and polarisation flat or rising; no compound was filed as active; the % refers to the polarisation; negative = inhibition;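 also: % of control where 0% means no effect; inhibitors lower the polarisation; unlabelled MLL peptide was the positive control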
# gsp antag – antagonizes gsp, the McCune-Albright syndrome mutation | Potency, µM (top dose mostly 76.9 µM), for the others: at the top dose activity change, negative = inhibition, usual class: inhibitors | actives 0.4% (n = 340,000) | gsp-mutant cells, cAMP HTRF, 30 min; control for the full effect not named in the record | AID 624288; active = falling curve of any shape with a large fitted effect; inconclusive = falling curve, mostly with a smaller effect; inactive = flat or rising curve; cell line not stated here;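 also: intracellular cAMP measured with PDE inhibitor Ro 20-1724 present during compound exposure; potency is read from the fitted curve at half-maximal effect; % is scaled to controls: 0 for no effect and ±100 for the full control effect; nearly all actives have a fitted effect of over 65% in size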
#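 G418-selected cells were plated in DMEM/10% FBS for 16-24 h at 37C, then treated with compounds plus the PDE inhibitor […] (300 uM solution added) for 30 min at 37C. Intracellular cAMP was measured by HTRF after 30 min lysis at room temperature.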
# ClpP mod – qHTS Assay for Activators of ClpP; ATP-dependent Clp protease proteolytic subunit (Bacillus subtilis (strain 168)), P80244; purified B. subtilis ClpP, FRET peptide cleavage, 20 min; Potency, µM (highest dose often 57.5 µM), for the others: top-dose activity change, negative = active; actives 1.9% (n = 340,000); active = well fitted falling curve with a large enough effect; inconclusive = small, poorly fitted or top-dose-only effect; inactive = no such curve, though single readings can be large or run the other way; also: potency is read from the fitted curve at half-maximal effect; the source files actives as falling curves though it sought activators and does not explain the sign; nearly all actives have a fitted effect of over 65% in size; many hits overshoot -100%
# Target sequence (P80244 whole entry, looked up): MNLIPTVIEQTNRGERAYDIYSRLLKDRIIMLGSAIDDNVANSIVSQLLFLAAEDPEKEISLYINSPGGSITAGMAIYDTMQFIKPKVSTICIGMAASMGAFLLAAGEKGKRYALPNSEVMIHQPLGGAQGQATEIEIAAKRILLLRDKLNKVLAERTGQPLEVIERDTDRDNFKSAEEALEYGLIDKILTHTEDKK
#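 Purified B. subtilis ClpP, 10 microg/mL final in Tris/HCl pH8 with KCl, BSA, glycerol and Tween-20, cleaved an Abz/nitrotyrosine-quenched decapeptide. Fluorescence (ex 320, em 430) was read at 0 and 20 min at room temperature. Delta was normalized to 5.8 microM ADEP and DMSO/no-enzyme controls.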
# TRPV1 PAM – enhances activation of the human vanilloid receptor TRPV1. potentiation, % at 8.33 µM. AID 540277. actives 0.02% (n = 320,000). TRPV1-expressing cells, Fluo-8 calcium influx, capsaicin EC20 potentiation; host cell line not named in the record; control for the full effect not named in the record; active means potentiation above 80%; inconclusive means 30% to 80%; inactive means below 30%; also: 0% is about no effect
# Target sequence (Q8NER1 whole entry, looked up): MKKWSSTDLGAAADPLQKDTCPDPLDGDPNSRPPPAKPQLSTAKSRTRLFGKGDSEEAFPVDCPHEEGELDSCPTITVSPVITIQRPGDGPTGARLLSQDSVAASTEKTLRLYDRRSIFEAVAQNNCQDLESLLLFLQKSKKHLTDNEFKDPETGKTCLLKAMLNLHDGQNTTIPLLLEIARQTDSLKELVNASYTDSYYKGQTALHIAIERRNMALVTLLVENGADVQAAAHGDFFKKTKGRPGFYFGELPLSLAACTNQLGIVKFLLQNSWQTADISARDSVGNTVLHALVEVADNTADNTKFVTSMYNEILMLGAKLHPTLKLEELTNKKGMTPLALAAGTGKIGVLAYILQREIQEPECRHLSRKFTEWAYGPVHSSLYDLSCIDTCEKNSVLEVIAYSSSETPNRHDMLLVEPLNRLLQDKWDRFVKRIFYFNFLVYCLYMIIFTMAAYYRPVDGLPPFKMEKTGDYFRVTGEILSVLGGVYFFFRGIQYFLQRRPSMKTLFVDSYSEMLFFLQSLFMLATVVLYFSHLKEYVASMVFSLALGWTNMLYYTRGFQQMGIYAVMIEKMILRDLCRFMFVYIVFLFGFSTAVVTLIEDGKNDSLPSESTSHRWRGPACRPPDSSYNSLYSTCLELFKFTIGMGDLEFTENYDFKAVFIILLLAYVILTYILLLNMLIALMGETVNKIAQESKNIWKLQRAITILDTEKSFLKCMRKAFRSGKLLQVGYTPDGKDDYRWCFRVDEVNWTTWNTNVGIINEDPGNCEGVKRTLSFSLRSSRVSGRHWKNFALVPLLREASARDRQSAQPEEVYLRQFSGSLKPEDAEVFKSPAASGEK
#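 Fluo-8 calcium influx in TRPV1-expressing cells, kinetic read (ex 480/em 520 nm). Compound added and read 3 min for agonist activity, followed by capsaicin at EC20 final and 2 min further read for enhancement.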
# Sfp inh – inhibitors of Bacillus subtilis Sfp phosphopantetheinyl transferase; Q9F4F7; Biochemical Sfp PPTase activity, qHTS; Potency, µM, for the others: max response, negative = inhibition, hits mostly inhibitors; actives 3.5% (n = 310,000); AID 1490; active = well fitted inhibition curve with a large enough effect; inconclusive = small, poorly fitted or top-dose-only effect, or another doubt; inactive = no such curve, though single readings can be large or run the other way;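 also: the enzyme is Sfp with the accession as filed and its product quenches rhodamine fluorescence; potency is read from the fitted curve at half-maximal effect; 0% = enzyme reaction without inhibitor and -100% = no enzyme wells; top concentration of the series not given in the record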
#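 Compounds were incubated with enzyme (final 15 nM) for 15 min at room temperature before substrate addition started the reaction. Fluorescence at 525 nm excitation, 598 nm emission was recorded immediately and after 30 minutes.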
# An asterisk follows results filed as active; u = inconclusive; x = no result given; [ ] = another dose, or the depositor's remark.
SMILES,gsp agonist,CtBP-E1A inh,Menin MLL FP FL,gsp antag,ClpP mod,TRPV1 PAM,Sfp inh
CC(=O)c1ccc(N2C(=NC(=O)CCC3CCCC3)SC3CS(=O)(=O)CC32)cc1 (configuration not stated),9%,x,5.8,u,0.5%,25,-1%
CS(=O)(=O)N(CCc1ccccc1)CC(=O)NCc1ccccn1,1%,-2,1.7,-15%,1.0%,6,9%
CCOc1ccccc1-n1c(SCC(=O)NC2CCCC2)nnc1-c1ccoc1C,-33%[inhibitor],-2,1.5,-17%,0.3%,-17,5%
Cc1cccc(C)c1N1CCN(c2cc(Cl)nc(N)n2)CC1,-2%[15.4 µM],0,-2.9,-4%,2.3%,21,-3%
Cc1cc(N)c(C)c([N+](=O)[O-])c1C,-21%[15.4 µM],-15,2.5,16%,0.1%,-14,0%
COc1ccc(-c2csc(NC(=O)c3cc(C)oc3C)n2)cc1OC,u,u,1.4,u,-9.5%,3,-20%
COc1cc(C(=O)Oc2ccccc2/C=N/NC(=O)c2ccc(Cl)cc2Cl)cc(OC)c1OC,31%,u,-0.3,4%,-6.9%,2,14%
Cc1ccccc1/C=C1\C(=O)Nc2ccc(F)cc21,7%,1,-2.4,0%,x,22,4%
O=C(Nc1ccc(F)c(F)c1)C1CCCN(S(=O)(=O)c2cnc[nH]2)C1 (configuration not stated),-3%,1,0.8,-9%,0.3%,27,21%
O=C(/C=C/c1ccnc2ccccc12)c1cccs1,-2%[15.4 µM],3,1.1,10%,x,-4,-18%
CCCc1nnc(NC(=O)CCC(=O)N2CCN(Cc3ccc(Cl)cc3)CC2)s1,u,3,x,6%,-2.0%,19,11%
CCN(CC)CCNC(=O)C1c2ccccc2C(=O)N(C)C1c1cn(C)c2ccccc12 (configuration not stated),u,-4,-1.7,0%,-4.7%,-39,2%
CCOC(=O)N1CCN(C(=O)c2ccc(CNS(=O)(=O)c3ccc(C)cc3)cc2)CC1,5%,4,3.8,2%,-0.5%,7,13%
Cc1ccc(C)c2c1CCC(=Cc1ccccc1[N+](=O)[O-])C2=O,0%,-3,x,x,0.1%,x,x
O=C(NCC1CCS(=O)(=O)C1)Oc1ccccc1 (configuration not stated),3%,3,2.1,8%,1.2%,-4,5%
CCCc1cc(=O)[nH]c(SCC(=O)Nc2ccc(C)c(S(=O)(=O)N3CCCCC3)c2)n1,2%,x,x,-20%,1.3%,23,x
CC(C)(C)c1ccccc1NC(=O)N1CCNC(=O)C1CC(=O)Nc1ccc(F)cc1 (configuration not stated),8%[15.4 µM],-2,x,2%,2.0%,4,0%
Nc1nccnc1C(=O)OCC(=O)NC1CCCc2ccccc21 (configuration not stated),-8%,-3,x,5%,4.5%,6,x
CCOC(=O)CC1C(=O)NCCN1S(=O)(=O)c1ccccc1Cl (configuration not stated),2%,12,5.0,14%,2.6%,-3,13%
COc1ccc(OC)c(CCNC(=O)C(=O)Nc2ccc3nc4n(c(=O)c3c2)CCCCC4)c1,0%,x,-2.4,-4%,-2.2%,22,12%
Cn1c(C2CCCCC2)nc2ccccc21,5%[15.4 µM],-16,0.4,-6%,-1.1%,28,17%
CCC(NC(=O)c1ccccc1NC(=O)C(C)(C)C)C(=O)N1CC(C)OC(C)C1 (configuration not stated),1%[15.4 µM],7,x,3%,x,x,x
COc1ccc(CNC(=O)C[C@H]2C[C@H](C(=O)N3CCCCC3)[C@@]3(C)c4[nH]c5ccc(Cl)cc5c4CCN3C2=O)cc1OC,x,-12,x,-20%,1.1%,x,x
O=c1c2ccccc2nc2n1CCS2,39%,0,0.9,10%,-3.4%,-4,10%
N#C/C(=C/c1ccc(Sc2nc3ccccc3[nH]2)o1)c1cccc(F)c1,17%,2,19,35µM*,-7.1%,6,11%
CCC(C)n1c(C)cc(=O)n1C(C)CC (configuration not stated),0%,-2,x,10%,u,x,x
COCCNC(=O)c1cccc2c1C(=O)c1ccc(N3CCOCC3)cc1S2(=O)=O,-1%,0,x,2%,-0.7%,x,x
CN(CCOc1ccccc1)C(=O)c1cc(S(=O)(=O)N2CCOCC2)ccc1Cl,-22%,0,x,0%,-2.3%,-16,x
Cc1ccccc1S(=O)(=O)N1[C@@H](c2cccc(Cl)c2)C(C(=O)O)=CC[C@H]1c1ccc(Cl)cc1,x,1,x,3%,0.6%,u,x
CC(C)CN(C(=O)COC(=O)CSc1ccc([N+](=O)[O-])cc1)C1CCS(=O)(=O)C1 (configuration not stated),-3%,4,x,-6%,1.6%,-12,x
Cc1ccc2cc(CN(CCN(C)C)C(=O)Nc3ccc(Cl)cc3)c(=O)[nH]c2c1,19%[15.4 µM],-1,-2.7,2%,0.0%,-3,14%
O=C(Nc1cccc(S(=O)(=O)N2CCCC2)c1)C1CCCN1C(=O)c1cccs1 (configuration not stated),0%,-10,-1.1,-3%,-1.2%,6,20%
CC(=O)c1ccc(OCC(=O)Nc2ccc3c(c2)CCC3)cc1,3%[15.4 µM],-18,-1.0,x,x,-11,1%
Cc1nc2c3ccccc3nc(NNC(=O)CCC(=O)NC3CCCC3)n2n1,6%[15.4 µM],-18,1.0,5%,x,-23,-3%
O=c1[nH]c(SCc2ccc(Cl)cc2)nc2[nH]ncc12,-34%[inhibitor],-4,0.5,5%,0.0%,6,11%
CCN(CCS(=O)(=O)c1ccc(Br)cc1)Cc1nc2ccccc2c(=O)[nH]1,u,0,x,-19%,-1.0%,x,x
N#Cc1cc2cc3c(cc2nc1N1CCOCC1)OCO3,-35%,10,-0.3,-3%,32µM*,-8,2%
Cc1ccc2c(Cl)cc(Cl)c(OCC(=O)Nc3cccc(S(N)(=O)=O)c3)c2n1,20%,-10,4.0,-21%,-7.1%,4,1%
O=C(COC(=O)CNC(=O)c1ccccc1)NCCc1ccccc1,18%[15.4 µM],3,-0.9,-7%,x,2,11%
O=C1Cc2cc(S(=O)(=O)NCc3ccc(F)cc3)ccc2N1,-3%[15.4 µM],8,x,-2%,-0.5%,x,x
N#C/C(=C\c1cccs1)C(=O)NCC1CCCO1 (configuration not stated),1%,3,-1.7,3%,-1.0%,5,7%
COC(=O)c1c(NC(=O)C2=COCCO2)sc(C)c1C,-2%[15.4 µM],-5,x,-9%,u,9,x
CC(=O)N1CCC(C(=O)Nc2ccccc2)(N(Cc2ccccc2)C(=O)c2cccnc2)CC1,-63%[inhibitor],-1,0.5,6%,2.1%,2,-1%
CCOCCCNc1nc(C)nc2c1nnn2Cc1c(F)cccc1Cl,4%,11,-0.5,-8%,x,-4,16%
COC(=O)c1sccc1NC(=O)Nc1ccccc1F,-53%[inhibitor],x,0.3,1%,9.3%,-5,15%

# Single entries from the results shown.
# ClpP mod with CCN(CCS(=O)(=O)c1ccc(Br)cc1)Cc1nc2ccccc2c(=O)[nH]1 = -1.0%
# TRPV1 PAM with N#Cc1cc2cc3c(cc2nc1N1CCOCC1)OCO3 = -8
# TRPV1 PAM with CN(CCOc1ccccc1)C(=O)c1cc(S(=O)(=O)N2CCOCC2)ccc1Cl = -16

# (continued)
SMILES,gsp agonist,CtBP-E1A inh,Menin MLL FP FL,gsp antag,ClpP mod,TRPV1 PAM,Sfp inh
O=C(CCc1ccccc1)N1CCN(c2ccccn2)CC1,9%,7,8.0,1%,u,u,-8%
COc1ccc(Cn2c(N)c(S(=O)(=O)c3cccs3)c3nc4ccccc4nc32)cc1,u,16,5.2,-13%,8.9µM*,-10,18%
O=C(COc1ccc(F)cc1Br)NCc1nnc2ccccn12,u,-1,x,13%,-4.0%,x,x
CCNC(=S)NNC(=O)c1cc(-c2ccc(OCC)cc2)nc2ccccc12,u,-3,-1.3,1%,34%,-14,18%
Cn1nc(-c2ccc(Cl)cc2)cc1NC(=O)CCCC(=O)O,9%,x,0.4,0%,2.1%,12,12%
O=C(O)CCc1ccc(-c2ccccc2)n1Cc1ccco1,-24%,-7,1.7,-18%,28µM*,u,35µM*
O=C(O)c1cc(S(=O)(=O)N2CCN(S(=O)(=O)c3ccc4ccccc4c3)CC2)ccc1Br,25%,6,x,3%,-0.6%,x,x
COc1ccc(CCNC(=S)NNC(=O)c2c(Br)c(C)nn2C)cc1OC,-8%,-11,x,-9%,-2.0%,u,9%
COc1ccc(CNc2ncnc3sccc23)cc1OC,19%,-3,-0.8,-14%,x,-2,6%
CC1CC(C)CN(C(=O)Nc2ccccc2F)C1 (configuration not stated),26%,x,4.5,11%,1.1%,-7,0%
Cc1c(/C=N/NC(=O)c2cc(=O)[nH]c(=O)[nH]2)c2ccccn2c1C(=O)c1ccccc1,u,-21,1.3,-5%,0.7%,10,22%
O=C(COC(=O)C1CCC1)Nc1cccc(S(=O)(=O)N2CCOCC2)c1,-48%[15.4 µM],-14,x,-3%,x,-7,x
Cc1cc(S(=O)(=O)N2CCCOC2CNC(=O)C(=O)NCc2ccco2)ccc1F (configuration not stated),-14%[15.4 µM],-5,6.3,4%,x,3,14%
COc1ccc(Cc2nnc(SCC(=O)NC3CCCC3)o2)cc1,6%,-1,1.5,-15%,-1.0%,-5,-9%
O=C(Cn1sc2ccccc2c1=O)N1CCN(C(=O)c2ccco2)CC1,23%,3,-1.2,-7%,-1.1%,12,3%
O=C(N/N=C/c1cccc([N+](=O)[O-])c1)c1nc2ccccc2c(=O)[nH]1,7%[15.4 µM],5,4.1,-3%,x,3,11%
COc1cc(-c2ccccc2)nc2ccccc12,-1%,3,-1.7,u,-0.4%,8,0%
Cc1nn(-c2nc3ccccc3s2)c(N)c1Sc1ccc(F)cc1,16%,0,0.4,-2%,0.8%,1,21%
C/C(=N/NC(=S)Nc1cccc(C)c1)c1cccc([N+](=O)[O-])c1,-2%,x,3.7,-15%,0.6%,11,11%
Cc1ccc(S(=O)(=O)NCCC(=O)NCc2ccc(Cl)cc2)cc1C,-32%[inhibitor],5,x,3%,0.8%,7,x
CC(=O)Nc1ccc(S(=O)(=O)N(C)c2ccc(OCCOc3ccccc3F)cc2)cc1,17%[15.4 µM],-3,x,-10%,2.3%,x,x
